# Compound activity deposited in PubChem by National Center for Advancing Translational Sciences (NCATS).
# PINK1 expr mod: A Quantitative High throughput Screen to Identify Chemical Modulators of PINK1 Expression. Potency, µM (titrated, usually from 76.6 µM), for the others: top-dose activation (PINK1 increase), most hits filed as activators. PINK1 immunofluorescence, high-content cytometry, 24 h. hit rate 0.2% among 410,000; active = well fitted activation curve with a large enough effect; inconclusive = small, poorly fitted or top-dose-only effect; inactive = flat fitted curve, though single readings scatter; cell line not stated here;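 also: % of control where 0% means no effect; nearly all actives have a fitted effect of over 65% in size; a mitochondrial uncoupler was the plate control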
#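 Compound titrations (5 concentrations, 24 h) on a stable cell line; DMSO and CCCP controls. Endpoint: fixed-cell PINK1 immunofluorescence with mitochondrial, cell and nuclear markers, scanned by microplate cytometer.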
# ClpP mod: qHTS Assay for Activators of ClpP. ATP-dependent Clp protease proteolytic subunit (Bacillus subtilis (strain 168)), P80244. purified B. subtilis ClpP, FRET peptide cleavage, 20 min. Potency, µM (series often up to 57.5 µM), for inactives: top-dose activity change, negative = active. hit rate 1.9% among 340,000. AID 651965, 2013; active = well fitted falling curve with a large enough effect; inconclusive = small, poorly fitted or top-dose-only effect; inactive = no such curve, though single readings can be large or run the other way; also: the source files actives as falling curves though it sought activators and does not explain the sign; nearly all actives have a fitted effect of over 65% in size; many hits overshoot -100%
# Target sequence (P80244 whole entry, looked up): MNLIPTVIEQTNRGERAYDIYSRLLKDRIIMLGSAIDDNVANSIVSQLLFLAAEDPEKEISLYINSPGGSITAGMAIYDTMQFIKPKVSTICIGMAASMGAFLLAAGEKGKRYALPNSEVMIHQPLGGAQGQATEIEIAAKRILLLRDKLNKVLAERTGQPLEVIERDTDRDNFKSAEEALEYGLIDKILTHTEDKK
#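 ClpP 10 microg/mL final, pH 8 Tris/KCl buffer with BSA, glycerol, Tween-20; compound pinned in; FRET-FV substrate; RT 20 min; Ex320/Em430; ΔFRET vs ADEP 5.8 microM, DMSO, no enzyme.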
# The depositor's hits bear a star; ? = inconclusive. Potency is read from the fitted curve at half-maximal effect.
# Order of values – PINK1 expr mod	ClpP mod
COc1ccc(Cl)cc1NC(=O)N1CC(=O)Nc2sc3c(c2C1c1ccccc1)CCCC3 (stereo not given)
  3.1%	-3.3%
CCc1ccc2oc(-c3cc(NC(=O)c4cccs4)ccc3Cl)nc2c1
  3.6%	?
CC(C)n1c(=N)c(C(=O)NCc2cccnc2)cc2c(=O)n3ccccc3nc21
  -1.4%	4.4%
Cc1[nH]c2ccccc2c1C(=O)CNc1ccc(Br)cc1
  1.9%	-0.2%
CCCCOc1ccc(CNC(=O)C2CCCN(c3nnc(-n4c(C)ccc4C)s3)C2)cc1 (stereo not given)
  0.8%	1.5%
CCOc1ccccc1CN1CCc2nc(N3CCN(C)CC3)ncc2C1
  -0.8%	-1.1%
COc1cccc(NC(=O)C2CCN(c3nn4cc(-c5ccc(F)cc5)nc4s3)CC2)c1
  5.4%	-6.7%
O=C(NCc1ccc(F)cc1F)[C@@H]1CCCN1C(=O)[C@@H]1CCCN1C(=O)c1ccc(Cl)cc1
  0.1%	-2.9%
CC(C)c1cnc2c(c1SCC(=O)Nc1cccc([N+](=O)[O-])c1)c(=O)n(C)c(=O)n2C
  -0.3%	1.1%
COc1ccc(NC(=O)C2CCN(c3ccc(Sc4ccc(C)cc4)nn3)CC2)c(OC)c1
  4.4%	-1.1%
Cc1cccc(OCC(=O)Nc2nnc(S(=O)(=O)N3CCc4ccccc43)s2)c1
  0.4%	0.8%
O=C(Nc1ccc(C(=O)N2CCN(c3ccc(Cl)cc3)CC2)cc1)c1nsc2ccccc12
  -0.6%	0.5%
O=C(Nc1ccc(C(F)(F)F)cc1)C(Cc1ccccc1)n1cccc1 (stereo not given)
  ?	-17%
CCOc1ccc2oc(=O)cc(CN3CCN(c4ccc(OC)cc4)CC3)c2c1
  -0.4%	-3.5%
O=C1Nc2c(c(=O)[nH]c(=O)n2-c2ccccc2)C1(NS(=O)(=O)c1ccc(Cl)cc1)C(F)(F)F (stereo not given)
  0.0%	-2.3%
COc1ccc(CCNC(=O)Cn2c(=O)n(-c3ccc(OC)c(OC)c3)c(=O)c3ccccc32)cc1OC
  3.0%	?
COc1ccc(Nc2c(C3CC3)nc3nc(C)cc(C)n23)cc1
  5.0%	-4.6%
CN(Cc1ccccc1)c1nc2c(S(=O)(=O)c3ccccc3)nnn2c2ccsc12
  0.0%	-0.6%
COc1ccc(-c2nc3sc(CCNC(=O)c4ccco4)c(C)n3n2)cc1
  0.6%	-0.1%
CC(C)OCCCNC(=O)CSc1c2c(nc3ccc(Cl)cc13)CCCC2
  2.6%	-2.1%
CCOC(=O)C1CCN(c2c(C(=O)c3ccc(C)cc3)cnc3ccc(F)cc23)CC1
  -0.1%	-1.1%
O=C(CS(=O)(=O)c1cccc2nsnc12)NCc1ccccc1Cl
  -2.8%	-3.4%
Cc1ccc2nc(-c3ccc(C)o3)c(Nc3ccc(F)cc3)n2c1
  1.1%	?
CC1=C(c2ccc(C(C)C)cc2)S(=O)(=O)NC1=NCc1ccc(Cl)cc1
  -1.1%	-3.3%
O=C(CNC(=O)C1CCCCC1)OCC(=O)c1ccc(-c2ccccc2)cc1
  -0.3%	-7.7%
COC(=O)c1ccc(C(=O)OC)c(NC(=O)c2ccc(-c3ccccc3)s2)c1
  6.6%	-22%
Fc1ccc(-c2ccc(CNCCSc3nnnn3-c3ccccc3)o2)cc1Cl
  -0.3%	-2.3%
CSc1ccc(CCNC(=O)Cn2ncc3c(=O)oc4ccccc4c32)cc1
  4.9%	-4.3%
CC1CCC(NC(=O)c2ccc3c(c2)N(Cc2cccc(Cl)c2)C(=O)c2ccccc2S3=O)CC1 (stereo not given)
  2.4%	-1.1%
COC(=O)C1=C(C)N(C(C)C)C(=O)C1(NC(=O)c1ccc(C(C)(C)C)cc1)C(F)(F)F (stereo not given)
  1.4%	-3.8%

# Single values from the entries so far.
# `Fc1ccc(-c2ccc(CNCCSc3nnnn3-c3ccccc3)o2)cc1Cl` in PINK1 expr mod: -0.3%
# `COC(=O)c1ccc(C(=O)OC)c(NC(=O)c2ccc(-c3ccccc3)s2)c1` in PINK1 expr mod: 6.6%
# `CC(C)c1cnc2c(c1SCC(=O)Nc1cccc([N+](=O)[O-])c1)c(=O)n(C)c(=O)n2C` in PINK1 expr mod: -0.3%
# `Cc1cccc(OCC(=O)Nc2nnc(S(=O)(=O)N3CCc4ccccc43)s2)c1` in ClpP mod: 0.8%

# (continued)
# Order of values – PINK1 expr mod	ClpP mod
COc1ccc(-c2nc3n(n2)C(c2cccc(C)c2)C(C(N)=O)=C(C)N3)cc1OC (stereo not given)
  -0.4%	0.2%
O=C(CSc1nc2ccccc2nc1Cc1ccc(Cl)cc1)N1CCN(c2ccccc2)CC1
  2.5%	-3.0%
O=C(NCc1ccccn1)[C@@H]1CCCN1C(=O)[C@@H]1CCCN1C(=O)c1cccc(Cl)c1
  -0.2%	1.2%
Cc1cccc(N2CCN(C3(c4ccccc4)C(=O)c4ccccc4C3=O)CC2)c1C
  -2.9%	0.8%
CCN(CC)S(=O)(=O)c1ccc(NC(=O)CSc2nnc3c(n2)[nH]c2ccccc23)cc1
  9.2%	26%
COc1ccc(OC)c(NC(=O)N2CCC(CN3CCCCC3)CC2)c1
  2.2%	-0.2%
COc1cccc(C2Nc3ccccc3-c3nnc(SCc4ccccc4)nc3O2)c1OC (stereo not given)
  1.5%	1.6%
CSc1ccc(CCNc2ncnc3onc(-c4ccc(Cl)cc4)c23)cc1
  0.6%	-11%
O=S1(=O)c2ccccc2N(Cc2ccccc2)c2ccccc21
  0.9%	-5.6%
COc1ccc(C2C(=O)N(C3CCC(C)CC3)CC(=O)N2Cc2ccccc2Cl)cc1OC (stereo not given)
  0.4%	1.4%
Cc1cc(C)cc(NC(=O)C2CCN(S(=O)(=O)c3cn(C)cn3)CC2)c1
  0.5%	2.3%
CCOc1ccccc1NC(=O)CN1CCN(S(=O)(=O)c2ccc(Br)cc2)CC1
  -0.4%	-9.0%
O=C(Cc1ccccc1)Nc1sc2c(c1C(=O)Nc1ccc(Br)cc1)CCCC2
  2.4%	?
Cc1cc(C)n2c(Nc3ccc4c(c3)OCCO4)c(-c3ccc(F)cc3)nc2n1
  0.4%	-5.2%
Cc1ccc2nc(N3CCN(c4cccc(Cl)c4)CC3)c3nnnn3c2c1
  1.9%	-1.2%
COc1ccc(OCC(=O)OCc2cc(=O)n3nc(C4CC4)sc3n2)cc1
  -0.7%	-6.3%
Cc1ccccc1OCC(=O)NCC(C)NC(=O)COc1ccccc1C (stereo not given)
  -0.1%	2.5%
COc1cccc(NC(=O)C2=C(C)C(=O)OC23CCN(C(C)=O)CC3)c1
  1.3%	-1.7%
O=S(=O)(c1ccccc1)N1CCC(c2ccncc2)CC1
  -0.9%	-9.4%
CC(NC(=O)c1ccc2c(c1)CCN2S(=O)(=O)c1ccccc1)c1ccccc1 (stereo not given)
  2.0%	0.2%
CCOc1ccccc1CNC(=O)c1cn(-c2ccc(OC)cc2)c(=O)c2ccccc12
  -0.7%	30%
O=[N+]([O-])c1ccc(C(c2sc3nc(-c4ccco4)nn3c2O)N2CCC3(CC2)OCCO3)cc1 (stereo not given)
  0.8%	1.6%
CCCNC(=O)Cn1c(SCc2ccccc2C)nc2ccncc21
  1.9%	-9.4%
COc1ccccc1N1CCN(c2cc(C)nc3nc(-c4ccc(C)cc4)nn23)CC1
  -0.3%	?
FC(F)(F)c1cccc(-n2cc(-c3ccccc3)c3c(N4CCCCC4)ncnc32)c1
  0.9%	0.3%
CCOC(=O)c1cccc(NC(=O)c2cc3c(-c4cccc(OC)c4)nn(C)c3s2)c1
  0.9%	4.7%
COc1ccc2nc3oc(C(=O)N4CCN(c5cc(C)ccc5C)CC4)cc3cc2c1
  3.3%	-15%
Cc1ccc(NC(=O)C2CCN(C(=O)c3cnn(-c4ccccc4)c3-n3cccc3)CC2)cc1
  0.2%	0.4%
CCN1CCc2c(sc(NC(=O)CSc3ccccc3)c2-c2nc3ccccc3s2)C1
  11%	-3.3%
Cc1cc(Nc2ccc(Br)cc2)n2nc(-c3ccccc3C)nc2n1
  0.4%	?
O=S(=O)(NCC(c1cccs1)S(=O)(=O)c1ccccc1)c1ccc(F)cc1 (stereo not given)
  1.4%	2.3%
CN(C)c1ccc(C(CNC(=O)c2ccccc2Cl)N2CCc3ccccc32)cc1 (stereo not given)
  -1.2%	-2.9%
Cc1ccc(S/C(=N/S(=O)(=O)c2ccc(Cl)cc2)c2ccccc2)cc1
  0.1%	-0.6%
CCOc1ccc(-n2c(SCC(=O)N3CCCc4ccccc43)nc3c([nH]c4ccccc43)c2=O)cc1
  -3.4%	-5.8%
COc1cccc(NC(=O)N(CCC(C)C)C2CCN(C(C)C)CC2)c1
  -1.1%	1.3%
COc1cc(OC)cc(-c2nnc(SCC(=O)N3CCC(C)CC3)o2)c1
  -0.9%	-2.1%
Cc1c(Cl)cccc1NC(=O)Nc1nnc(N(C)Cc2ccccc2)s1
  -1.1%	0.0%
CC(C)COc1ccc(C(=O)N2CCN(CCc3ccncc3)CC2)cc1
  0.9%	-1.6%
C=CCn1c(SCC(=O)NCc2ccco2)nnc1-c1cccc(N(C)C)c1
  0.6%	-0.2%
O=C(COc1ccccc1Cl)Nc1nc(-c2ccc(F)cc2)ns1
  0.7%	-1.5%
COc1cc(Nc2nc(SCC(=O)c3ccc(Br)cc3)nc3ccccc23)cc(OC)c1
  3.7%	2.3%
CCOC(=O)c1cc(-c2ccccc2)n(CCC(=O)NCCc2ccc(C)cc2)c1C
  2.3%	-17%
CCOc1ccccc1C(=O)NC1(C(F)(F)F)C(=O)Nc2c1c(=O)[nH]c(=O)n2-c1ccccc1 (stereo not given)
  1.9%	-3.1%
O=C(CCC(=O)N1CC2CCCN2c2ccccc21)NCc1ccccc1Cl (stereo not given)
  0.4%	-11%
O=C(Nc1ccc(OCc2cc(=O)n3c4c(sc3n2)CCCC4)cc1)c1cccc(F)c1
  1.3%	2.9%
CCCCNC(=O)C[C@@H]1C[C@@]2(C(=O)OCC)CCC=C2N(Cc2ccc(Cl)cc2Cl)C1=O
  0.2%	-1.3%
CCOc1ccc(C(=O)N2CCC(c3noc(-c4ccc(S(=O)(=O)N5CCCC5)cc4)n3)CC2)cc1
  -0.6%	1.0%
COc1cccc(CNC(=O)Cc2c(C)c3ccc(OC)c(C)c3oc2=O)c1
  -0.1%	4.1%
NS(=O)(=O)c1ccc(CCNC(=O)CCn2c(=O)c3cccn3c3cccnc32)cc1
  0.6%	-24%
COc1ccccc1Nc1ncc2c(n1)CCN(CC(C)C)C2
  7.9%	1.4%
O=C(Cn1c(=O)nc(-c2ccccc2)c2cc(Cl)ccc21)Nc1ccc(F)c(Cl)c1
  0.2%	-3.0%
CC1CCCCN1C(=O)CSc1nnc(-c2ccccc2Cl)o1 (stereo not given)
  3.7%	-0.3%
CC(C)NC(=O)CSc1nc2ccccc2nc1N1CCCCC1
  0.2%	-14%
CCCCN1C(=O)C(NC(=O)c2ccc(C(C)(C)C)cc2)(C(F)(F)F)C(C(=O)OC)=C1C (stereo not given)
  2.8%	-15%
COc1ccc(C2CC(=O)c3cc(-c4nc(-c5cccc([N+](=O)[O-])c5)cs4)c(=O)n(-c4cc(C)cc(C)c4)c3C2)cc1 (stereo not given)
  2.5%	-0.4%
Cc1cccc(S(=O)(=O)c2cn(Cc3ccccc3)c3cc(N4CCOCC4)c(F)cc3c2=O)c1
  -1.3%	4.6%
Cc1ccc(C)c(NC(=O)CN(CCc2ccccc2)S(=O)(=O)c2ccccc2)c1
  7.9%	2.1%
CC1CCCCN1C(=O)c1ccc2c(c1)N(Cc1ccc(F)cc1)C(=O)c1ccccc1S2(=O)=O (stereo not given)
  1.3%	-2.0%
Cc1cccc(N2CCN(C(=O)Cn3nc(Cc4cccnc4)c4ccccc4c3=O)CC2)c1C
  0.9%	0.2%
COC(=O)c1ccc2nc(-c3ccc(Cl)cc3)c(Cc3ccc(OC)cc3C)n2c1
  1.3%	-17%

# By substructure: the entries above with a tert-butyl group
# Order of values – PINK1 expr mod	ClpP mod
COC(=O)C1=C(C)N(C(C)C)C(=O)C1(NC(=O)c1ccc(C(C)(C)C)cc1)C(F)(F)F (stereo not given)
  1.4%	-3.8%
CCCCN1C(=O)C(NC(=O)c2ccc(C(C)(C)C)cc2)(C(F)(F)F)C(C(=O)OC)=C1C (stereo not given)
  2.8%	-15%

# (list continues)
# Order of values – PINK1 expr mod	ClpP mod
COc1ccc(-c2cc(C(C)=O)c(C)n2CCC(=O)Nc2ccc(C)c(Cl)c2)cc1
  1.2%	-0.6%
Cc1ccc(C)c(N2CCN(C(=O)C3CCCN(S(=O)(=O)c4ccc5c(c4)oc(=O)n5C)C3)CC2)c1 (stereo not given)
  0.6%	-2.4%
CC1CCCN(Cc2c(O)ccc3c(=O)c(Oc4ccccc4Cl)c(C(F)(F)F)oc23)C1 (stereo not given)
  1.7%	-3.1%
Cc1coc2cc3oc(=O)c(CC(=O)NCc4ccccc4)c(C)c3cc12
  6.0%	-27%
COc1ccc(OC)c(CNC(=O)c2ccc3nc(C(C)C)oc3c2)c1
  0.5%	32µM*

# A portion of the library, so the mix of outcomes need not match the whole.
